Ecoli rRNA inh = inhibits bacterial ribosomal RNA function over humanized ribosomes; E. coli WT GFP vs humanized-ribosome RFP mutants, fluorescence, 24 h; hits give low values; DMSO median 0, no signal -100; GFP signal change (wild-type ribosome), % (test concentration not listed); AID 720706; actives 1.6% (n = 350,000);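 active = significant combined selectivity score with lowered wild-type GFP, culture density cut under 30%, mutant RFP and density less affected; inactive = any of these conditions unmet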; note: one replicate is shown; some compounds called inactive have numbers as strong as hits
A1 inh = inhibitors of the anti-apoptotic protein A1, read as caspase activation; MEF A1-2A-BIM cells, Caspase-Glo 3/7 luminescence, 3 h; percent of clofoctol response, vehicle zero; actives 0.066% (n = 330,000); AID 2462; caspase activation, % (no concentration beside the values);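 active = over half of replicate activation scores above 10%, or exactly half above 10 with the replicate mean above 10; inconclusive = replicate mean below 10 yet half the replicates above 10; inactive = over half of replicates below 10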;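 note: wells of about 30 µL received 50 nL stock; many hits fall short of the cut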
Calb FLC = affects C. albicans growth with fluconazole. C. albicans CaCi-2 (fluconazole-resistant clinical isolate) + fluconazole, Alamar Blue growth, 48 h. growth inhibition, % (no concentration beside the values). actives 0.57% (n = 300,000);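 active = most replicates above 75%; inconclusive = exactly half above 75%; inactive = most below 75%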;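 note: all wells also contain fluconazole at 8 µg/ml as a sub-toxic cotreatment; 0% = median of DMSO wells and 100% = median of geldanamycin control wells; wells of about 8 µL received 7.5 nL stock; the first replicate is given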
B2AR ag = agonists of human beta-2 adrenergic receptor inducing internalization; P07550; Am2.2-beta2AR cells, FAP receptor internalization, flow cytometry; reference of the scale not given here; response, % (no concentration beside the values); actives 0.43% (n = 340,000);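 active = response above a set limit, near 3 SD of response in nonfluorescent compounds, cut at about 42% in these data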;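 note: stock transfer was 100 nL into about 11 µL; a reference agonist was the positive control; negative values mostly stem from fluorescent compounds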
Target sequence (P07550 whole entry, looked up): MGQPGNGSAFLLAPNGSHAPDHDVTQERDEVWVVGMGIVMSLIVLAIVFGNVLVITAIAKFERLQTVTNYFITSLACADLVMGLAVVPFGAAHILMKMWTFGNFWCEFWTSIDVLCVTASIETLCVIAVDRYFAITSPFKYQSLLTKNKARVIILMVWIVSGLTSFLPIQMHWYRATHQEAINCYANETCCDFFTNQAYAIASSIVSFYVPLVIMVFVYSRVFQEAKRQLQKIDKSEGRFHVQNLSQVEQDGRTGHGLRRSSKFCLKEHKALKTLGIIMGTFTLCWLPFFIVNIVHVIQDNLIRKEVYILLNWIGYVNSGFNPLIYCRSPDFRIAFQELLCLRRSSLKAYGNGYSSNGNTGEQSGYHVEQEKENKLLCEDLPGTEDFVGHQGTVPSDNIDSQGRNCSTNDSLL
LANA-H2B inh = blocks KSHV LANA binding to histone H2A/H2B; cell-free LANA-H2A/H2B peptide, fluorescence polarization; inhibition, % (no concentration beside the values); actives 0.6% (n = 320,000); in the data active = inhibition mostly above about 10%, no sharp cut-off; inactive = mostly below about 6.7%;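 note: stock transfer was 7.5 nL into about 10 µL; 0% = median of vehicle wells and 100% = median of positive control wells; one replicate is shown; the record names a cut of 25% in any replicate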
T cruzi inh = T. cruzi replication inhibition; T. cruzi beta-gal in NIH3T3, luminescence, 90 h; AID 1885; actives 1.4% (n = 300,000); inhibition, % (test concentration not listed);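 active = mean inhibition across valid replicates above about 55%, limit read from the data; inconclusive = mean below that limit but half or more replicates reach it; inactive = mean below it, under half of replicates reach it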;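 note: signal also drops with host cell toxicity which is not excluded here; 0% = plate median of DMSO wells and 100% = zero luminescence signal; higher percent means less beta-gal luminescence so fewer parasites; stock transfer was 50 nL into about 50 µL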
ALR H2O2 inh = inhibitors of human sulfhydryl oxidase ALR | purified ALR, DTT oxidation, H2O2 HRP-luminol luminescence | P55789 | AID 485317 | actives 3.8% (n = 290,000) | inhibition, % (no concentration beside the values);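 active = mean and each replicate at 75% or more; inconclusive = only one of the two met; inactive = neither met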;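 note: stock transfer was 7.5 nL into about 7.5 µL; 0% = neutral wells and 100% = wells with inactivated enzyme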
Target sequence (P55789 whole entry, looked up): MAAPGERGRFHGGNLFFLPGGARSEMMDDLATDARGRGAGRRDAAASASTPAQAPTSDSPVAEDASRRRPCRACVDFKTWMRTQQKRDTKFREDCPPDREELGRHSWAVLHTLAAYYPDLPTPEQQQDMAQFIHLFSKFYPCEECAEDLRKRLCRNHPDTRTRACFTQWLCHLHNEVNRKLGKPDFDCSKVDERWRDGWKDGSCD
Beta cell apopt = blocks beta cell apoptosis | INS-1E cytokine-induced death, ATP luminescence, 48 h; percent of positive-control rescue, neutral wells zero | AID 435005 | protection from apoptosis, % (test concentration not listed) | actives 0.8% (n = 300,000);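 active = all replicates at 75% or more, or half of them and the mean; inconclusive = half reach 75% but not the mean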;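 note: 0% = cytokine-treated negative control wells and 100% = positive control rescue; higher means more ATP so stronger rescue from cytokine killing; wells of about 40 µL received 100 nL stock; the first replicate is given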
Ecoli rRNA inh OD600 = second read-out of Ecoli rRNA inh, no call of its own (marks repeat the call); OD600 change, %; measured here: OD600 growth;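 optical density of the mix in the first replicate; 0 = DMSO median and -100 = no signal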
Ecoli rRNA inh RFP = second read-out of Ecoli rRNA inh, no call of its own (marks repeat the call); RFP signal change, %; measured here: RFP humanized mutant strains;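 first replicate; 0 = DMSO median and -100 = no signal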
An asterisk follows results filed as active; ? = inconclusive; / = no result given.

cpd	Molecule	Ecoli rRNA inh	Ecoli rRNA inh OD600	Ecoli rRNA inh RFP	A1 inh	Calb FLC	B2AR ag	LANA-H2B inh	T cruzi inh	ALR H2O2 inh	Beta cell apopt
1	CC1Cc2ccccc2N1S(=O)(=O)c1c(N)n(C)c(=O)n(C)c1=O (stereo unspecified)	/	/	/	0.0	17	2	-1.7	0	-4	-4
2	Cc1ccc2c(=O)cc(C(=O)NCCc3ccc(S(N)(=O)=O)cc3)oc2c1C	-2	10	0.5	1.4	0	1	-0.9	-4	4	5
3	CCCc1nc(SCC(=O)O)c2sc(=S)n(-c3ccccc3)c2n1	-12	-20	-2.7	1.2	9	16	-1.1	12	2	1
4	CCc1nonc1NC(=O)c1oc2cc(C)c(C)cc2c1C	8	20	0.2	1.5	-3	5	3.5	2	2	-3
5	CN(C)CCCNC(=O)C(=O)NCC1CCCO1 (stereo unspecified)	11	6	0.3	-1.6	-14	-3	5.0	-12	-4	1
6	O=S(=O)(N1CCOCC1)N1CCOCC1	-1	1	0.8	0.7	-1	-1	-2.7	-5	/	-10
7	Cc1cc(NC(=O)c2ccc(Cn3cc([N+](=O)[O-])cn3)o2)no1	11	14	5.7	0.3	-2	-3	-0.7	/	-8	-4
8	COc1ccc(N2C(=O)C(F)(F)C2c2ccccc2F)cc1 (stereo unspecified)	5	6	0.2	/	26	14	/	-13	/	/
9	O=C(O)/C=C/c1ccc(S(=O)(=O)Nc2ccccc2C(=O)Nc2ccc(F)cc2)cc1	3	-7	3.0	-1.6	8	-3	1.1	-6	3	-2
10	CCCCOc1cc(=O)[nH]c(=O)[nH]1	/	/	/	1.8	-8	1	1.7	-10	/	3
11	CC(C)(C)NC(=O)C(c1ccc(O)cc1)N(C(=O)CCC(=O)Nc1ccccn1)c1ccc(F)cc1 (stereo unspecified)	-1	3	0.9	1.1	-8	5	5.6	0	-3	-2
12	Cc1ccc2nc(/C(C#N)=C\c3ccc(N4CCOCC4)o3)[nH]c2c1	/	/	/	-0.8	9	-93	-30	43	45	11
13	O=C(NCc1ccco1)c1ccc(Cl)c(S(=O)(=O)N2CCOCC2)c1	/	/	/	0.9	-1	0	6.5	-6	-2	3
14	CC1CCN(C(=O)CSc2nc3c(c(=O)n2C)SC(C)C3)CC1 (stereo unspecified)	4	0	1.9	-0.8	3	-13	3.4	-1	27	/
15	CC(C)(C)n1ncc2c(=O)n(CC(=O)NCc3ccccc3Cl)cnc21	/	/	/	0.0	-2	-7	0.3	-14	1	-5
16	COc1cc(/C=N/NC(=O)c2ccncc2)ccc1OC(=O)c1cccc(F)c1	-9	-9	2.0	-0.6	9	1	-3.1	-9	12	1
17	Cc1cc(=O)oc2cc(OCC(=O)NC3CCCCC3)c(Cl)cc12	22	15	6.6	1.1	/	0	0.5	/	0	4
18	Nc1nc(CN2CCN(Cc3ccccc3)CC2)nc(N2CCCc3ccccc32)n1	6	-3	0.2	0.1	7	-5	0.3	29	-2	-1
19	COc1ccccc1CN1C(=O)C(=O)N(Cc2cccc(C)c2)C1=O	5	5	3.0	1.7	9	-10	-0.3	8	1	-6
20	Clc1ccccc1CSc1nnc(Cn2cnc3ccccc32)n1-c1ccccc1	/	/	/	-0.6	8	-13	-6.5	1	-20	6
21	CCOC(=O)C1(O)CC(C)=NN1C(=O)c1cccc(Br)c1 (stereo unspecified)	13	9	0.0	0.6	-13	0	1.9	-10	-4	-3
22	CC(C)c1ccc2[nH]c(O)c(N=NC(=O)c3cccc(S(=O)(=O)Nc4cccc(Cl)c4)c3)c2c1	10	-10	-3.5	?	2	9	3.9	-4	-3	2
23	CCOC(=O)c1ccc(NC(=O)CSc2nnc(NC(=O)c3ccc(S(=O)(=O)N4CCOCC4)cc3)s2)cc1	/	/	/	-0.8	-4	8	/	0	/	-2
24	COc1ccc(N(CC(=O)Nc2cc(C)on2)S(=O)(=O)c2ccc(Cl)cc2)cc1	/	/	/	1.3	-4	-9	2.5	/	-7	2
25	Fc1ccc(Oc2cnns2)cc1	8	20	-1.2	0.6	-15	-9	4.2	-13	-4	-5
26	CC1(C)CC(=O)c2sc(N3CCCCC3)nc2C1	/	/	/	-0.7	-2	-1	4.8	1	-12	0
27	Cc1cc(=O)[nH]c(SCC(=O)Nc2ccccc2C#N)c1C#N	/	/	/	0.1	35	1	0.1	-3	-2	2
28	CC1CC(C)CN(C(=O)CCc2ccccc2)C1 (stereo unspecified)	13	15	2.9	0.0	-10	-3	3.0	-3	-1	-3
29	CCc1nn2c(N3CCOCC3)cc(C)nc2c1-c1ccccc1	2	-4	-1.1	-0.1	8	-1	0.0	-7	/	-3
30	CC(=O)/C(=N/Nc1ccccc1)Sc1nnc(C(O)c2ccccc2)n1-c1ccccc1 (stereo unspecified)	-9	-14	2.4	-0.1	-16	-2	8.3	9	/	-2
31	CC(=O)Oc1ccc(C2OC(=O)c3ccccc3N2C(C)=O)cc1 (stereo unspecified)	/	/	/	-0.1	?	6	6.9	-15	3	-26
32	Cc1nnsc1-c1nnc(SCC(=O)c2ccccc2)n1C1CC1	3	1	1.4	-0.4	4	4	1.6	-3	84*	-2
33	Cc1cccc(-n2nc([N+](=O)[O-])c(N3CCN(C(=O)c4ccco4)CC3)[n+]2[O-])c1	0	0	-2.7	0.9	3	1	12	44	-53	-3
34	O=C(NC1CCCC1)C(c1ccsc1)N(C(=O)Cc1cccs1)c1cccc(F)c1 (stereo unspecified)	4	8	0.7	-1.1	2	2	7.3	6	/	0
35	Fc1ccc(-c2csc3ncnc(Nc4ccc(N5CCOCC5)cc4)c23)cc1	/	/	/	-0.5	-37	-3	-0.4	20	37	8
36	O=C(NCCc1ccc(Cl)cc1)c1cc2ccccn2n1	0	10	1.3	-0.7	-30	11	1.7	-2	-3	2
37	Cc1ccc(Sc2ccc(/C=C3/C(=O)NN(c4ccccc4)C3=O)o2)cc1	0	-4	-2.8	0.0	-11	0	3.1	-18	/	3
38	c1ccc(CSc2ccc(-c3cccs3)nn2)cc1	/	/	/	-2.7	-6	-18	-1.7	9	-47	-4
39	CC1CCN(C(=O)c2cc(-c3ccccc3O)on2)CC1	7	9	3.0	-1.6	-6	6	-3.2	1	37	-3
40	COc1cc(SC)ccc1C(=O)Nc1ncc(Cl)cc1Cl	14	12	1.5	-1.8	-2	-33	3.7	10	-5	1
41	COc1cccc(OC)c1OCC(C)CNCC1CCCO1 (stereo unspecified)	9	3	0.7	-0.6	-3	-3	2.8	-7	-7	-6
42	CCOC(=O)c1[nH]c2ccc(C)cc2c1NC(=O)CN1CCCCC1	/	/	/	1.3	-2	4	-2.7	10	98*	-1
43	CCCCn1c(SCC(=O)NCc2ccco2)nc2c(sc3ccccc32)c1=O	/	/	/	0.7	1	-3	-1.0	30	-14	7
44	C=CCNC(=S)NNC(=O)c1cc(C)nc2ccccc12	/	/	/	-0.7	0	-6	0.7	-12	30	/
45	Cc1cc(=O)n2c3ccccc3n(CC(O)CN3CCCCC3)c2c1C#N (stereo unspecified)	/	/	/	-0.1	2	10	-0.6	14	-10	6
46	CCCCCc1cc(=O)oc2c(C(CCN(CC)CC)c3ccc(OC)cc3)c(OC)cc(OC)c12 (stereo unspecified)	/	/	/	0.1	48	13	-1.1	47	-82	98*
47	CCn1c(SCC(=O)N2CCN(c3ccccc3)CC2)nnc1-c1c[nH]c2ccccc12	-6	-17	0.0	0.1	0	-9	0.8	14	9	10
48	Cc1nc(SCC(=O)O)c(C#N)c(C)c1CC(=O)c1ccccc1	-7	-5	-2.1	0.6	1	3	-5.6	-5	-2	-4
49	CCN1C(=O)CC(c2ccco2)Sc2ccccc21 (stereo unspecified)	/	/	/	-0.4	-3	12	0.5	4	-13	-6
50	C=CCN=C(NC#N)SCc1ccccc1	/	/	/	0.5	-2	-6	8.5	-10	-1	/

Next part.
cpd	Molecule	Ecoli rRNA inh	Ecoli rRNA inh OD600	Ecoli rRNA inh RFP	A1 inh	Calb FLC	B2AR ag	LANA-H2B inh	T cruzi inh	ALR H2O2 inh	Beta cell apopt
51	COc1ccc(CNC(=O)[C@H](Cc2ccccc2)NC(=O)C2CCN(C(=O)[C@H](C)N)CC2)cc1	/	/	/	0.4	-2	-9	-6.3	-6	5	/
52	O=C(Cc1cccc(NC(=O)C2CCCN(C(=O)C3CC3)C2)c1)Nc1cccc(C(=O)N2CCCC2)c1 (stereo unspecified)	-21	-14	9.7	1.1	/	-5	-7.2	/	-4	0
53	COc1cc(OC)c(C(=O)N2CCCC2)cc1OC	22	12	-4.2	0.8	?	0	3.2	-3	-5	-6
54	Cc1ccc(C(=O)C2CCN(CC(=O)Nc3ccccc3C)CC2)cc1	-1	-17	3.1	-0.5	-1	-4	-2.5	13	/	3
55	N#Cc1ccc(-c2ccc(OCC(=O)NCC(=O)Nc3ccc(F)c(F)c3F)cc2)cc1	6	11	-6.8	-0.9	-3	15	-3.2	-11	-19	1
56	COc1ccc(CNC(=O)CSc2nnc3c(n2)[nH]c2ccc(C)cc23)cc1	9	3	2.0	0.1	-5	4	-0.5	-5	0	-6
57	Cc1cc(=O)oc2cc(OCC(=O)OCC(=O)NCCc3ccccc3)ccc12	3	0	-2.0	-0.5	-19	4	5.5	-11	-2	-7
58	Cc1nc2ccc(C(=O)c3ccccc3)cc2[nH]1	/	/	/	-0.7	-5	-26	2.3	15	-6	-3
59	Cn1[nH]c(C(F)(F)F)cc1=O	8	9	0.7	0.1	-6	8	2.8	-1	-16	-7
60	CCOC(=O)C1CCN(C(=O)COC(=O)/C=C/c2ccc([N+](=O)[O-])cc2)CC1	6	7	0.8	-0.3	/	17	-1.6	/	-5	-1
61	O=C(CC1NCCNC1=O)Nc1ccc2c(c1)OCCO2 (stereo unspecified)	/	/	/	-0.1	/	2	0.6	/	-11	-9
62	CC(=O)c1ccc(N2CCC(C)CC2)c(F)c1	9	16	-1.5	0.9	-7	0	-3.9	-8	0	-3
63	O=C(OC1CCOC1=O)C1CCN(S(=O)(=O)c2c(Cl)cccc2Cl)CC1 (stereo unspecified)	10	20	-2.0	0.5	17	-2	-4.1	20	/	5
64	N#Cc1ccc(C23OCCN2CCn2nc4ccccc4c23)cc1 (stereo unspecified)	-1	3	-3.9	-0.2	/	8	-0.6	/	/	-1
65	Cc1[nH]c2ccccc2c1C(=O)/C=C\c1ccccc1Cl	/	/	/	-0.2	13	3	0.3	10	-2	4
66	O/N=C/c1ccccc1Oc1ccccc1	/	/	/	-0.6	4	-4	-0.7	3	-3	-3
67	CCCCN(C)C(=O)Cn1cnc2sc(C)c(S(=O)(=O)N3CCN(c4ccccc4OC)CC3)c2c1=O	-2	-6	-2.5	-0.3	1	3	2.7	11	-3	-10
68	Cc1ccc(C(C(=O)NC2CCCC2)N(C(=O)CNC(=O)c2ccco2)c2ccccc2)o1 (stereo unspecified)	3	3	0.5	-0.6	3	5	2.9	-9	-3	2
69	CCN(CC)S(=O)(=O)c1ccc(C(=O)N2CCN(C(=O)c3ccco3)CC2)cc1	1	6	-4.2	0.7	/	-1	3.4	/	/	-3
70	COCc1nnc(NC(=O)CS(=O)(=O)Cc2ccccc2)s1	/	/	/	1.9	9	5	-24	-3	2	/

Screening data (PubChem)

The list is partial (hit frequency here may not be typical).
